Bioassay records (PubChem BioAssay)
DUX4 inh = DUX4-mediated transcription inhibition | 293T-iDUX4 ZSCAN4-Gaussia luciferase reporter, 24 h; hits give low values | 37,000 compounds, 0.8% hits | activity change, negative = inhibition, % (no concentration beside the values) | AID 1224904;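 active = -10% or lower and over 25 points stronger than a control reporter; inconclusive = -10% or lower with a smaller gap; inactive = above -10%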;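 also: 0% = median of neutral control wells and -100% = median of positive control wells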
DUX4 inh difference = recorded beside DUX4 inh, whose call it bears; Gaussia minus Italica difference, %; measured here: selective DUX4 reporter inhibition;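 worked out from the two reporters; negative = selective loss of the DUX4 reporter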
DUX4 inh control = further read-out of DUX4 inh, marked with its call; activity change, negative = inhibition, %; measured here: Italica tet-on control reporter;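 0 = neutral control and -100 = positive control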
* marks the source's active call; other numbers are inactive results; ? = inconclusive; nt = not tested or not shown. Only part of the results is shown (hit frequency here may not be typical).

SMILES	DUX4 inh	DUX4 inh difference	DUX4 inh control
CCCNC(=O)[C@H]1[C@H](CO)[C@H]2Cn3c(ccc(-c4ccc(F)cc4)c3=O)[C@@H]1N2Cc1ccccc1F	?	nt	nt
CCCNC(=O)[C@@H]1[C@@H](CO)[C@@H]2Cn3c(ccc(C4=CCCCC4)c3=O)[C@H]1N2	3	6	-3.4
COCc1cn(CC[C@@H]2CC[C@H](NC(=O)Nc3c(C)noc3C)[C@@H](CO)O2)nn1	-9	-13	4.1
CN1c2ccc(-c3cccc(C#N)c3)cc2[C@H]2[C@H](CCN2C(=O)NC2CCCC2)[C@@H]1CO	?	nt	nt
O=C(C[C@H]1CC[C@@H]2[C@H](COC[C@H](O)CN2Cc2cccc(C(F)(F)F)c2)O1)NCCc1ccccc1	?	nt	nt
COc1cccc(CN2C[C@@H](C)[C@H](OC)CN(C)C(=O)c3ccc(NS(=O)(=O)c4cn(C)cn4)cc3OC[C@H]2C)c1	3	3	-0.2
OC[C@@H]1[C@H](c2ccc(Br)cc2)[C@@H]2CN(Cc3ccccn3)CCCCN12	0	-6	5.8
CCCNC(=O)N1[C@H](C#N)[C@@H](c2ccc(-c3cccc(OC)c3)cc2)[C@@H]1CO	2	-2	3.9
O=C(N[C@H]1CC[C@H](CCn2cc(C3CC3)nn2)O[C@H]1CO)c1cccnc1	3	-1	3.6
CC(C)c1cn(CC[C@H]2CC[C@@H](NS(=O)(=O)c3ccc(F)cc3)[C@H](CO)O2)nn1	-3	-8	4.5
CN(C)Cc1cn(CC[C@@H]2CC[C@H](N)[C@H](CO)O2)nn1	8	8	0.8
O=C(C[C@@H]1C[C@@H]2c3cc(NC(=O)c4ccc5c(c4)OCO5)ccc3O[C@@H]2[C@H](CO)O1)NCc1cc(F)ccc1F	5	8	-3.2
CCC(=O)N1C[C@@H](C)[C@H](OC)CN(C)C(=O)c2cc(NC(=O)c3cc(C)on3)ccc2OC[C@H]1C	-5	-4	-0.3
C[C@@H]1CN([C@@H](C)CO)C(=O)CCCn2nncc2CO[C@H]1CN(C)C(=O)Nc1ccccc1	-3	0	-3.4
O=C(C[C@H]1CC[C@@H]2[C@H](COC[C@@H](O)CN2Cc2ccc(F)cc2)O1)NCCc1ccccc1	-7	-12	4.6
O=C(c1cccnc1)N1C[C@H]2[C@@H](c3ccccc31)[C@@H](CO)N2C(=O)Nc1ccccc1F	0	-1	1.3
CCC(=O)Nc1ccc2c(c1)C(=O)N(C)[C@H]1CC[C@H](CC(=O)N[C@@H](C)c3ccccc3)O[C@@H]1CO2	-2	10	-12
COCC#Cc1ccc([C@H]2[C@H](CO)N3CCCCN(C(=O)NC4CCCC4)C[C@@H]23)cc1	9	13	-3.5
Cc1ccc(S(=O)(=O)Nc2ccc3c(c2)CC(=O)N([C@H](C)CO)C[C@@H](C)[C@@H](CN(C)C(=O)Nc2ccc4c(c2)OCO4)O3)cc1	1	3	-1.8
CO[C@H]1CN(C)C(=O)c2ccc(NC(=O)C3CC3)cc2OC[C@H](C)N(C(=O)c2ccccc2F)C[C@@H]1C	4	-6	9.9
CN(C)C(=O)c1cccc(-c2ccccc2[C@@H]2[C@H](C#N)N(C(=O)C3CCCCC3)[C@H]2CO)c1	13	9	3.9
C[C@H]1CN([C@@H](C)CO)C(=O)c2c(c3ccccc3n2C)-c2ccccc2CO[C@H]1CN(C)Cc1ccc(C(=O)O)cc1	11	8	2.5
COc1ccc(NC(=O)N2CCCCN3[C@@H](CO)[C@@H](c4ccc(-c5ccccc5F)cc4)[C@@H]3C2)cc1	?	nt	nt
O=C(NCC(F)(F)F)[C@H]1[C@H](CO)[C@H]2Cn3c(ccc(-c4ccncc4)c3=O)[C@H]2N1Cc1ccncc1	6	8	-1.9
C[C@@H]1CN([C@H](C)CO)C(=O)c2cc(NS(=O)(=O)c3cn(C)cn3)ccc2O[C@H]1CN(C)Cc1ccc(-c2ccccc2)cc1	2	0	2.7

Part of the list above in order of SMILES length, lowest first:
SMILES	DUX4 inh	DUX4 inh difference	DUX4 inh control
O=C(C[C@H]1CC[C@@H]2[C@H](COC[C@H](O)CN2Cc2cccc(C(F)(F)F)c2)O1)NCCc1ccccc1	?	nt	nt
CO[C@H]1CN(C)C(=O)c2ccc(NC(=O)C3CC3)cc2OC[C@H](C)N(C(=O)c2ccccc2F)C[C@@H]1C	4	-6	9.9
COc1cccc(CN2C[C@@H](C)[C@H](OC)CN(C)C(=O)c3ccc(NS(=O)(=O)c4cn(C)cn4)cc3OC[C@H]2C)c1	3	3	-0.2

The results go on:
SMILES	DUX4 inh	DUX4 inh difference	DUX4 inh control
CC(C)NC(=O)N1CC2(C1)[C@H](c1ccccc1)[C@H](CO)N2CCC(F)(F)F	8	7	0.7
CNC[C@H]1OCc2cnnn2CCCC(=O)N([C@H](C)CO)C[C@H]1C	2	3	-0.4
C/C=C/c1ccc([C@H]2[C@@H](CO)N(C(=O)CC)[C@H]2CNC(=O)c2ccncc2)cc1	2	-2	3.4
C[C@H]1CN([C@@H](C)CO)C(=O)CCCn2cc(nn2)CO[C@H]1CN(C)C(=O)Nc1ccccc1F	3	2	1.0
CO[C@H]1CN(C)C(=O)c2ccc(NC(=O)c3cc(C)on3)cc2OC[C@H](C)N(CC2CC2)C[C@H]1C	1	-10	11
CO[C@H]1CN(C)C(=O)c2cccc(C#N)c2OC[C@H]2O[C@H](CC[C@H]2OC)CCN(C)C(=O)[C@H]1C	-2	-1	-0.7
C[C@@H]1CN([C@@H](C)CO)C(=O)CCCn2nncc2CO[C@H]1CN(C)CC1CCCCC1	2	-1	2.6
CCN1[C@H](C(=O)N(C)C)[C@@H](CO)[C@@H]2Cn3c(ccc(-c4ccc(OC)cc4)c3=O)[C@@H]21	6	13	-6.4
CN1C(=O)c2cc(NC(=O)NCc3ccccc3)ccc2OC[C@H]2O[C@H](CC(=O)NCC3CCCCC3)CC[C@H]21	-3	-5	1.6
COc1ccc2c3c(n(C)c2c1)[C@H](CO)N(S(=O)(=O)c1ccc(C)cc1)CC31CCN(Cc2cccnc2)CC1	4	-7	11
O=C(O)C[C@H]1C[C@@H]2c3cc(NC(=O)Cc4ccncc4)ccc3O[C@@H]2[C@H](CO)O1	8	4	4.3
CN(C)C(=O)c1ccc(-c2ccc([C@@H]3[C@@H](CO)N4CCCCN(C(=O)C5CC5)C[C@H]34)cc2)cc1	16	14	2.1
C[C@@H]1CN([C@@H](C)CO)C(=O)c2cccc(NC(=O)C3CCCCC3)c2O[C@@H]1CN(C)Cc1ccc(Cl)c(Cl)c1	-2	-5	3.6
CCC(=O)N1CCCCN2[C@H](CO)[C@H](c3ccc(-c4cccc(C#N)c4)cc3)[C@@H]2C1	8	9	-0.9
CCCNC(=O)C[C@@H]1C[C@H]2c3cc(NC(=O)C4CCOCC4)ccc3O[C@H]2[C@H](CO)O1	5	-2	7.1
C[C@@H](O)C#Cc1ccc([C@H]2[C@H](CO)N3CCCCN(S(=O)(=O)Cc4ccccc4)C[C@@H]23)cc1	26	6	20
C[C@H](CO)N1C[C@H](C)[C@H](CN(C)C(=O)CCCN(C)C)OCCCC[C@H](C)Oc2ccc(NC(=O)CCC(F)(F)F)cc2C1=O	2	3	-1.6
CCC(=O)N1[C@H](CO)[C@H]2c3ccccc3N(C(=O)NC(C)C)C[C@H]21	1	-6	6.9
COCC(=O)Nc1ccc2c(c1)OC[C@H](C)N(C)C[C@@H](C)[C@H](OC)CN(C)C2=O	4	-3	6.8
O=C(c1ccccc1)N1[C@@H](CO)[C@@H](c2ccccc2)C12CN(CCC(F)(F)F)C2	-10	-11	1.5
Cc1ccccc1S(=O)(=O)N[C@@H]1CC[C@@H](CCn2cc(-c3ccc(F)cc3)nn2)O[C@H]1CO	?	nt	nt
COc1ccc(NC(=O)N(C)C[C@@H]2OCc3cn(nn3)CCCC(=O)N([C@@H](C)CO)C[C@@H]2C)c(OC)c1	4	3	0.9
CCCNC(=O)N1CC2(C1)[C@@H](c1ccccc1)[C@@H](CO)N2C(=O)C1CCCC1	13	7	5.6
O=C(C[C@H]1CC[C@@H](NC(=O)C2CCC2)[C@@H](CO)O1)NCc1ccncc1	5	-2	7.1
CO[C@H]1CN(C)C(=O)c2ccc(NC(=O)C3CCOCC3)cc2OC[C@@H](C)N(Cc2cccnc2)C[C@@H]1C	-4	-13	8.9

One compound at a time, as listed above:
`C[C@@H](O)C#Cc1ccc([C@H]2[C@H](CO)N3CCCCN(S(=O)(=O)Cc4ccccc4)C[C@@H]23)cc1` is listed as DUX4 inh = 26; DUX4 inh difference = 6; DUX4 inh control = 20
`CCCNC(=O)C[C@@H]1C[C@H]2c3cc(NC(=O)C4CCOCC4)ccc3O[C@H]2[C@H](CO)O1` is listed as DUX4 inh = 5; DUX4 inh difference = -2; DUX4 inh control = 7.1

(continued)
SMILES	DUX4 inh	DUX4 inh difference	DUX4 inh control
COc1ccccc1NC(=O)N1CC(=O)N2[C@@H](CO)[C@@H](c3ccc(C#CCC(C)C)cc3)[C@@H]2C1	-10	2	-12
O=C(c1ccncc1)N1CC(=O)N2[C@H](CO)[C@H](c3ccc(-c4ccccc4F)cc3)[C@H]2C1	11	9	1.2
CO[C@@H]1CN(C)C(=O)c2ccc(NC(=O)Nc3ccccc3Cl)cc2OC[C@H](C)NC[C@@H]1C	1	4	-3.4
CCCC#Cc1ccc([C@H]2[C@@H](CO)N3CCCCN(S(C)(=O)=O)C[C@@H]23)cc1	13	3	9.8
COc1ccc(-c2ccc([C@H]3[C@H]4CNCC(=O)N4[C@H]3CO)cc2)cc1	7	-11	18
O=C(O)C[C@H]1C[C@@H]2c3cc(NS(=O)(=O)c4ccc(F)cc4)ccc3O[C@@H]2[C@@H](CO)O1	5	2	2.9
CCCNC(=O)C[C@@H]1C[C@@H]2c3cc(NC(=O)COC)ccc3O[C@@H]2[C@@H](CO)O1	-6	-9	3.0
COc1ccc(C#Cc2ccc([C@@H]3[C@H]4CN(C(=O)c5ccncc5)CCCCN4[C@H]3CO)cc2)cc1	-4	-12	8.5
C[C@H]1CN([C@@H](C)CO)C(=O)c2cc(/C=C/c3ccccc3)cnc2O[C@@H]1CN(C)S(=O)(=O)c1ccccc1F	-1	-4	3.5
COC(=O)[C@@H]1[C@@H](CO)[C@@H]2Cn3c(ccc(-c4ccccc4OC)c3=O)[C@@H]2N1CC1CCOCC1	-4	-17	12
COCC(=O)Nc1ccc2c(c1)[C@@H]1C[C@H](CC(=O)NCc3cccnc3)O[C@H](CO)[C@@H]1O2	0	1	-0.9
COc1ccc2c3c(n(C)c2c1)[C@@H](CO)N(Cc1ccccc1OC)CC31CN(CC2CCOCC2)C1	?	nt	nt
CCN1[C@@H]2c3ccc(-c4ccncc4)c(=O)n3C[C@@H]2[C@@H](CO)[C@@H]1C(=O)Nc1ccccc1	-4	6	-11
CCCN1[C@@H]2Cn3c(ccc(-c4ccccc4)c3=O)[C@H]1[C@@H](C(=O)N1CCCCC1)[C@@H]2CO	-4	0	-4.2
COc1cccc(CN2CC3(CCN(C)CC3)c3c([nH]c4cc(OC)ccc34)[C@@H]2CO)c1	-3	-6	2.7
CC=Cc1ccc2n(c1=O)C[C@H]1[C@H](CO)[C@@H](C(=O)N[C@H](C)c3ccccc3)[C@@H]2N1Cc1cncnc1 (mixture of isomers)	4	5	-1.2
COc1cccc(C#Cc2ccc([C@H]3[C@H](C#N)N(C(=O)C4CC4)[C@H]3CO)cc2)c1	-5	-4	-0.8
CC(C)CC#Cc1ccc([C@@H]2[C@H](CO)N3CCCCN(S(=O)(=O)Cc4ccccc4)C[C@@H]23)cc1	2	-29	32
CCCNC(=O)C[C@@H]1CC[C@@H]2[C@H](COc3ccc(NC(=O)c4ccc(Cl)cc4)cc3C(=O)N2C)O1	-2	-1	-0.5
O=C([C@H]1[C@H](CO)[C@H]2Cn3c(ccc(-c4ccccc4F)c3=O)[C@@H]1N2C(=O)C1CC1)N1CCOCC1	2	0	1.7
O=C(C[C@@H]1CC[C@H]2[C@@H](COC[C@H](O)CN2Cc2cc(F)ccc2F)O1)N[C@@H]1CCN(Cc2ccccc2)C1	?	nt	nt
O=C(C[C@@H]1CC[C@H]2[C@@H](COC[C@H](O)CN2Cc2ccccc2F)O1)NCc1ccccc1F	-9	1	-10
CCC(=O)N1[C@H](CO)[C@H](c2ccc(C3=CCCC3)cc2)C12CN(C(=O)COC)C2	10	6	3.9
COc1cccc(-c2ccc([C@H]3[C@@H](CO)N4CCCCN(S(=O)(=O)c5cn(C)cn5)C[C@H]34)cc2)c1	9	14	-4.9
COC(=O)[C@H]1[C@H](CO)[C@H]2Cn3c(ccc(-c4ccccc4)c3=O)[C@H]2N1CC1CCCCC1	?	nt	nt
CN(C)C(=O)c1ccc(-c2ccccc2[C@H]2[C@@H](CO)N(C(=O)C3CC3)[C@H]2C#N)cc1	10	10	0.3
CN(C)C(=O)[C@@H]1[C@@H](CO)[C@@H]2Cn3c(ccc(-c4ccccc4F)c3=O)[C@@H]2N1C(=O)C1CC1	4	3	1.2
